ClpP mod = qHTS Assay for Activators of ClpP | ATP-dependent Clp protease proteolytic subunit (Bacillus subtilis (strain 168)), P80244 | purified B. subtilis ClpP, FRET peptide cleavage, 20 min | Potency, µM (series often up to 57.5 µM), without a hit: at the top dose activity change, negative = active | actives 1.9% (n = 340,000) | AID 651965, 2013; active = well fitted falling curve with a large enough effect; inconclusive = small, poorly fitted or top-dose-only effect; inactive = no such curve, though single readings can be large or run the other way; note: potency is the fitted concentration of half-maximal effect; the source files actives as falling curves though it sought activators and does not explain the sign; nearly all actives have a fitted effect of over 65% in size; many hits overshoot -100%
Target sequence (P80244 whole entry, looked up): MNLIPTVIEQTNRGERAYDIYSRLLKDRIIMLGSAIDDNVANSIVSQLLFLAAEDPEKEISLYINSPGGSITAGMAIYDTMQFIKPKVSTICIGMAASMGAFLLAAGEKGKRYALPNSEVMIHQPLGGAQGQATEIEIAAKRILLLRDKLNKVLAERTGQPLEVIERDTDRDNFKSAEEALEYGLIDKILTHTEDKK
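FRET quenching reversal measured ClpP activation: 10 microg/mL B. subtilis ClpP at pH 8 with the FRET-FV decapeptide, read at 430 nm after 320 nm excitation. The 20-min minus 0-min signal was scaled between DMSO/no-enzyme wells and ADEP (5.8 microM final).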
TRPML1 agonist = qHTS for Agonists of the Human Mucolipin Transient Receptor Potential 1 (TRPML1); activation, % (no concentration beside the values); Mucolipin-1 (Homo sapiens), Q9GZU1; actives 0.12% (n = 410,000); TRPML1-expressing cells, Ca2+ dye fluorescence, FDSS; host cell line not named in the record; reference of the full effect not given here; in the data active = activation above about 50%; inconclusive = about 30% to 50%; inactive = below about 30%; note: 0% is about no effect; the text of the record puts the active cut at 80%
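TRPML1-DL cells, Tet-induced overnight (~16 h, 37 degrees C), loaded 45-90 min at room temperature with Ca8 no-wash calcium dye plus quencher. FDSS fluorescence: 10 s baseline, compound pin-transfer, 110 s agonist read, then EC80 54-4 (4uM final) and 110 s antagonist read.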
Menin-MLL FL inh = qHTS Assay for Inhibitors Targeting the Menin-MLL Interaction in MLL Related Leukemias: Competition With Fluorescein Labeled MLL-derived Peptide; 290,000 tested, under 10 active; Fluorescence polarization, fluorescein-MLL peptide displacement from menin; FP activity change, % at 61.4 µM; AID 1766, 2009; inconclusive = falling polarisation curve, or a change in total fluorescence; inactive = total fluorescence flat and polarisation flat or rising; no compound was filed as active; the % refers to the polarisation; negative = inhibition;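 note: % of control where 0% means no effect; inhibitors lower the polarisation; unlabelled MLL peptide was the positive control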
TRPML1 blocker = qHTS for Inhibitors of the Human Mucolipin Transient Receptor Potential 1 (TRPML1); Mucolipin-1 (Homo sapiens), Q9GZU1; TRPML1-inducible cells, Ca2+ dye fluorescence, FDSS; active compounds read low; inhibition of EC80 agonist-evoked calcium signal; activity change, negative = inhibition, % (no concentration beside the values); actives 0.02% (n = 390,000); AID 624415, 2012; in the data active means activity change below about -50%; inconclusive means about -30% to -50%; inactive means above about -30%;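 note: stimulus is agonist 54-4 at its EC80 concentration; % is set by controls: 0 for no effect and ±100 for the full control effect; compound concentration not given in the record; the text of the record puts the active cut at -80%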
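Tet-induced TRPML1-DL cells loaded with Ca8 no-wash calcium dye were read kinetically on FDSS. Compound addition was followed by EC80 agonist 54-4 (4 uM final); inhibition was read over 110 s.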
PINK1 modulator = A Quantitative High throughput Screen to Identify Chemical Modulators of PINK1 Expression; PINK1 immunofluorescence, high-content cytometry, 24 h; Potency, µM (top dose mostly 76.6 µM), inactives show top-dose activation (PINK1 increase), most hits filed as activators; actives 0.2% (n = 410,000); AID 624263, 2012; active = well fitted activation curve with a large enough effect; inconclusive = small, poorly fitted or top-dose-only effect; inactive = flat fitted curve, though single readings scatter; cell line not stated here;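 note: potency is the fitted concentration of half-maximal effect; % of control where 0% means no effect; nearly all actives have a fitted effect of over 65% in size; a mitochondrial uncoupler was the plate control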
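Stable cell line treated 24 h with compounds at 5 concentrations (CCCP controls), then fixed and immunostained for PINK1 plus nuclear and cell stains; PINK1 immunofluorescence quantified by laser-scanning microplate cytometry.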
Sfp inh = qHTS Assay for Inhibitors of Bacillus subtilis Sfp phosphopantetheinyl transferase (PPTase) | 4'-phosphopantetheinyl transferase ffp (Bacillus subtilis), Q9F4F7 | Biochemical Sfp PPTase activity, qHTS | Potency, µM, for the others: max response, negative = inhibition, most hits filed as inhibitors | actives 3.5% (n = 310,000); active = well fitted inhibition curve with a large enough effect; inconclusive = small, poorly fitted or top-dose-only effect, or another doubt; inactive = no such curve, though single readings can be large or run the other way;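 note: the enzyme is Sfp with the accession as filed and its product quenches rhodamine fluorescence; potency is the fitted concentration of half-maximal effect; 0% = enzyme reaction without inhibitor and -100% = no enzyme wells; top concentration of the series not given in the record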
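Step 1, compound plus 15 nM Sfp-PPTase, 15 min, room temperature. Step 2, add rhodamine-CoA (5 uM) and BHQ-2-YbbR (12.5 uM). Step 3, read 525/598 nm fluorescence at 0 and 30 min.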
TRPV1 potentiator = HTS Assay for Compounds that Act as Potentiators of the Vanilloid Receptor 1 | TRPV1-expressing cells, Fluo-8 calcium influx, capsaicin EC20 potentiation; host cell line not named in the record; control for the full effect not named in the record | potentiation, % at 8.33 µM | actives 0.02% (n = 320,000); active means potentiation above 80%; inconclusive means 30% to 80%; inactive means below 30%; note: 0% is about no effect
Target sequence (Q8NER1 whole entry, looked up): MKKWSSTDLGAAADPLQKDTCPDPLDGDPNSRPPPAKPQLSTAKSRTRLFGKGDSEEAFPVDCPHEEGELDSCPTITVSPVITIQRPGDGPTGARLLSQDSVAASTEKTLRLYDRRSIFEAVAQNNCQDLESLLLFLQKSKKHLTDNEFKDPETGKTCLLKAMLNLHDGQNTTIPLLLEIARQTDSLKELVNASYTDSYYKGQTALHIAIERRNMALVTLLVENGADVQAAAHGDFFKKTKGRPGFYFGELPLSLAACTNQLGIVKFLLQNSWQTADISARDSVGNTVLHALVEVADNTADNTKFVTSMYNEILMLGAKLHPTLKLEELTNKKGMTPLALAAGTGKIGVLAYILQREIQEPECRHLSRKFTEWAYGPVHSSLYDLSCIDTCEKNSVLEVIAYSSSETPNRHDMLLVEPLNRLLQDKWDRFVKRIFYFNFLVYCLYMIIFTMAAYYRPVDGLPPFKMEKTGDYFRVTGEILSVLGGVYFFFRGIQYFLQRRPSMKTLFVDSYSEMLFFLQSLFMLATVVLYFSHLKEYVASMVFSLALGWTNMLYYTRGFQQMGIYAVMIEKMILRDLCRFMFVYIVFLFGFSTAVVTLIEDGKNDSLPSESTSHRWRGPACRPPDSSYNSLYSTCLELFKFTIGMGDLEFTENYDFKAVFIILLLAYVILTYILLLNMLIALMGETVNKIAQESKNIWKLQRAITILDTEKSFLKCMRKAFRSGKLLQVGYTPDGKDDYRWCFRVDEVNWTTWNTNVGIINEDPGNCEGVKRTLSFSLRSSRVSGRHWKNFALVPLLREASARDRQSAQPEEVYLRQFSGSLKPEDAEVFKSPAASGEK
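Fluo-8 calcium influx in TRPV1-expressing cells, kinetic read (ex 480/em 520 nm). Compound added and read 3 min for agonist activity, followed by capsaicin at EC20 final and 2 min further read for enhancement.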
Active calls of the source: *; ? = inconclusive; · = not tested or not shown; & = joins results of further samples; [ ] = another dose, or the depositor's remark.

SMILES	ClpP mod	TRPML1 agonist	Menin-MLL FL inh	TRPML1 blocker	PINK1 modulator	Sfp inh	TRPV1 potentiator
O=C(N/N=C/c1cc(Br)c(Br)o1)c1cc2ccccc2o1	-15%	0.2	-0.1	-5	8.9%	-12%	-8
COc1ccc2[nH]cc(CCNC(=O)c3cnn(-c4ccc(C)cc4)c3C3CCN(C(=O)OC(C)(C)C)CC3)c2c1	-1.6%	-0.5	·	22	4.9%	·	·
Cc1cc(C)n(CC(=O)NCc2cc(-c3nn(C)c(=O)c4ccccc34)ccc2C)n1	-1.1%	0.7	-2.3	5	1.0%	20%	3
CCOC(=O)/C=C1/SCC(=O)N1CC(=O)c1ccc[nH]1	·	-0.7	·	8	-3.5%	·	·
Cc1csc(CN(C)C(=O)c2cn(Cc3cccc4ccccc34)nn2)n1	1.2%	-0.4	·	3	1.4%	2%	-2
CC(C)Cc1nc(N2CCN(C(=O)c3ccco3)CC2)c(C#N)c2c1CCCC2	4.6%	-0.3	0.8	-11	-0.5%	?	-16
Cc1cc(Cl)ccc1C(O)c1ncc(-c2ccc(Cl)cc2)[nH]1 (stereo not drawn)	-5.4%	-1.3	·	·	9.2%	·	·
O=C(O)CN1C(=O)NC2(CCCc3ccccc32)C1=O (stereo not drawn)	·	0.0	2.3	8	2.5%	8%	1
CCC(C)(C)NS(=O)(=O)c1cc(-c2cc(C)no2)ccc1C	-1.2%	0.1	·	-3	-0.1%	·	·
COC(=O)c1sc(-c2ccccc2)cc1NC(=O)c1cccc(F)c1	-9.8%	-0.3	·	-15	1.0%	·	·
Cc1c(-n2cc(C(=O)c3ccccc3O)cc(C#N)c2=O)c(=O)n(-c2ccccc2)n1C	3.1%	4.8	?	-21	-1.2%	19%	20
CN1C(=O)CSc2ccc(NC(=O)NCc3ccco3)cc21	-1.9%	0.7	0.3	-3	-2.7%[38.3 µM]	-13%	-10

Part of the list above in order of count of non-hydrogen atoms, high to low:
SMILES	ClpP mod	TRPML1 agonist	Menin-MLL FL inh	TRPML1 blocker	PINK1 modulator	Sfp inh	TRPV1 potentiator
COc1ccc2[nH]cc(CCNC(=O)c3cnn(-c4ccc(C)cc4)c3C3CCN(C(=O)OC(C)(C)C)CC3)c2c1	-1.6%	-0.5	·	22	4.9%	·	·
Cc1c(-n2cc(C(=O)c3ccccc3O)cc(C#N)c2=O)c(=O)n(-c2ccccc2)n1C	3.1%	4.8	?	-21	-1.2%	19%	20
Cc1cc(C)n(CC(=O)NCc2cc(-c3nn(C)c(=O)c4ccccc34)ccc2C)n1	-1.1%	0.7	-2.3	5	1.0%	20%	3
CC(C)Cc1nc(N2CCN(C(=O)c3ccco3)CC2)c(C#N)c2c1CCCC2	4.6%	-0.3	0.8	-11	-0.5%	?	-16
Cc1csc(CN(C)C(=O)c2cn(Cc3cccc4ccccc34)nn2)n1	1.2%	-0.4	·	3	1.4%	2%	-2
CCC(C)(C)NS(=O)(=O)c1cc(-c2cc(C)no2)ccc1C	-1.2%	0.1	·	-3	-0.1%	·	·
O=C(N/N=C/c1cc(Br)c(Br)o1)c1cc2ccccc2o1	-15%	0.2	-0.1	-5	8.9%	-12%	-8

(listing goes on)
SMILES	ClpP mod	TRPML1 agonist	Menin-MLL FL inh	TRPML1 blocker	PINK1 modulator	Sfp inh	TRPV1 potentiator
Cc1ccc(NC(=O)c2ccc(NCc3ccc(F)cc3)nc2)cc1	·	1.7	-0.4	-4	4.5%	17%	-10
CCOC(=O)c1[nH]c2cc(OC)c(OC)cc2c1NC(=O)CCN1CCSCC1	0.1%	-0.5	1.9	9	0.7%	2%	-19
CCn1cc(CN2CCCC(C(=O)c3ccc(-c4ccccc4)c(F)c3)C2)cn1 (stereo not drawn)	·	1.2	0.1	16	7.6%	6%	11
CCOC(=O)N1CCc2c(sc3c2c(=O)n(Cc2ccccc2)c(=O)n3CC(=O)Nc2c(C)cccc2C)C1	-2.4%	1.8	·	-12	0.4%	·	·
Cc1onc(-c2c(Cl)cccc2Cl)c1C(=O)N1CCc2ccccc2C1	-18%	1.1	-1.0	-21	-0.7%	-5%	-24
CCCCn1c(N)c(N(Cc2ccccc2OC)C(=O)CSCC(=O)Nc2ccc(C)cc2)c(=O)[nH]c1=O	-5.8%	1.3	·	-22	0.8%	·	·
COC(=O)c1ccc(COc2ccccc2/C=N/NS(=O)(=O)c2ccccc2)cc1	4.4%	0.1	0.6	12	?	8%	13
COc1ccccc1-c1nc2c(c(SCC(=O)Nc3ccccc3F)n1)Cc1c(CO)cnc(C)c1O2	-23%	-0.6	·	-10	0.5%	·	·
COc1cccc(-c2cnc3c(NC(C)=O)cc(-c4cccc(C(=O)NCCO)c4)cn23)c1	-16%	0.3	·	10	3.8%	·	·
O=C(c1ccccc1)c1c[nH]c2cc3c(cc2c1=O)OCCO3	-0.6%	-0.5	-0.4	2	6.8%	12%	1
CC(=O)c1c(C)[nH]c(C(=O)NCCC2=CCCCC2)c1C	-0.1%	0.3	4.1	-2	-1.3%	12%	-24
COc1ccccc1N1CCN(C(=O)c2cc(-c3ccc(C)c(F)c3)on2)CC1	-0.4%	0.3	·	-24	0.2%	·	·
O=C(C1CCCO1)N1CCN(S(=O)(=O)c2ccc(Cl)cc2)CC1 (stereo not drawn)	-1.8%	-0.3	·	-29	-1.9%	8%	-2
CCOc1nc(Nc2ccc(Cl)cc2)nc(OCC)n1	?	0.5	0.9	12	1.2%	4%	24
CC(C)(CO)NS(=O)(=O)c1ccc2c(c1)C(=NO)c1cc(S(=O)(=O)NC(C)(C)CO)ccc1-2	-9.7%	0.0	-0.6	41	5.9%	1%	7
Cc1ccc(Cl)cc1N(CC(=O)N1CCOCC1)S(C)(=O)=O	0.1%	-0.8	-0.6	-14	0.9%	24%	11
COC(=O)C1=C(C(=O)OC)[C@@H]2N(C)c3ccc(OC)cc3[C@@]23C[C@@H](C(=O)OC)N(S(=O)(=O)c2ccc(OC)cc2)C3=N1	0.8%	-0.6	-5.5[11.7 µM]	-1	0.3%	7%&-1%	-10
CC(C)c1ccc(NS(=O)(=O)c2ccc(-n3cccn3)cc2)cc1	0.0%	1.4	·	19	3.9%	1%	0
CCOC(=O)C1(Cc2ccccc2)CCCN(C(=O)C=C(C)C)C1 (stereo not drawn)	·	-0.8	-7.5	3	0.2%	20%	-23
COc1ccc(-c2n(CC(=O)OC3CC(C)CCC3C(C)C)c3ccccc3[n+]2C)cc1 (stereo not drawn)	·	1.5	-1.5	73	?	6%	0
CCN1CCN(c2cc(=O)n(-c3cc(Cl)ccc3C)c(=O)[nH]2)CC1	-5.0%	2.0	?	-14	0.5%[38.3 µM]	-14%	-18
CCC(=Nc1ccccc1)C1=C(O)CC(C)(C)CC1=O	·	·	-2.9	·	·	9%	105*
N#CCCn1cc(/C=C/C(=O)O)c(-c2ccc(F)cc2)n1	-0.4%	3.1	-4.1	-5	-1.2%	15%	0
Cn1c(SCC(=O)c2cc(Cl)c(Cl)s2)nnc1-c1ccco1	·	0.4	32[activator]	1	-0.8%	18µM*	·
O=C(O)CC(CNC(=O)C1CCCN1C(=O)OCc1ccccc1)c1ccccc1 (stereo not drawn)	-0.3%	0.8	1.7	4	-1.1%	7%	3
O=C(N/C(=C\c1cccc(Br)c1)C(=O)N1CCCCC1)c1ccco1	·	0.5	-2.1	27	-1.7%	15%	4
Cc1ccc(S(=O)(=O)Cn2nnnc2CN2CCCC3(CCCCC3)C2)cc1	-0.4%	-0.3	8.8	-1	·	3%	0
Nc1c(C(=O)NCc2ccc3c(c2)OCO3)nnn1Cc1ccc(Br)cc1	·	4.5	6.9	-14	14%	0%	7
CCOc1ccc(Sc2cc(C(=O)NCCc3ccc(OC)c(OC)c3)c3ccccc3n2)cc1	-0.1%	2.3	·	7	0.6%	·	·
CC(C)(C)C(=O)NCCc1csc2nc(-c3ccc(F)cc3)nn12	-1.1%	-0.7	·	3	0.6%	·	·
CCCCN(CC)c1nc(N)c(C#N)c(CC#N)c1C#N	-8.6%	5.1	?	17	-1.6%	-15%	0
C[n+]1c(/C=C/c2ccnc3ccccc23)cc(/C=C/c2ccnc3ccccc23)c2ccccc21	0.1%	-0.6	·	·	-0.1%	·	·
COc1cc(CNCc2ccccc2C(F)(F)F)cc(OC)c1	-3.3%	2.0	0.1	7	6.7%	-23%	-6
O=C(Nc1ccc(C(=O)OCc2cc(=O)n3nc(C4CC4)sc3n2)cc1)c1ccc(F)cc1	-23%	0.1	·	5	-0.1%	·	·
COc1ccc(-n2c(COc3ccccc3)nnc2SCC(N)=O)cc1	0.2%	0.3	-3.1	27	-1.1%	7%	8
O=C(c1ccc2c(c1)N(Cc1ccc(F)cc1)C(=O)c1ccccc1S2(=O)=O)N1CCN(c2ccccn2)CC1	-2.1%&-0.9%	0.0&0.8	-1.1	-2&-23	1.3%&0.9%	7%	12
COc1ccccc1CNC(=O)CCCn1nc(C)c2sc3ccccc3c2c1=O	-14%	-0.6	·	-22	0.3%	·	·
